From PubChem
RN4220 kill: kills Staphylococcus aureus RN4220 | S. aureus RN4220 growth, OD600, 16 h | inhibition, % (no concentration beside the values) | 0.33% of 330,000 active | AID 1259311;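 active = z-score of -3 or lower and OD600 up to 0.18 on both plates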;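 also: plate controls were untreated cells for no effect and reference antibiotic for full effect; stock transfer was 100 nL into about 80 µL; one replicate is shown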
BJeLR viability: BJeLR cell viability loss; AID 1554; 0.17% of 300,000 active; BJeLR (HRASV12) viability, CellTiter-Glo ATP luminescence, 48 h; reference of the scale not given here; inhibition, % (test concentration not listed);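 active = replicate mean above 50%; inconclusive = above 50% but judged a plate artefact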;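 also: 50 nL library stock added to about 25 µL; numbers are from one replicate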
Mtb hypoxia inh: Mtb hypoxia fluorescent reporter inhibition; M. tuberculosis hypoxia-regulated fluorescent reporter, fluorescence; fluorescence inhibition, % (no concentration beside the values); 0.1% of 300,000 active;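 active = 35 to 45% if threefold the growth effect, above 45% if 1.5-fold the growth effect; inactive = the rest, general growth blockers included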;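 also: wells of about 50 µL received 100 nL stock; 0% = vehicle wells and 100% = reference inhibitor wells; whole bacteria with a GFP reporter of the hypoxia response; strong numbers were not always called active; many hits fall short of the cut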
Sa ugtP lethal: kills S. aureus RN4220 lacking UgtP. AID 1259309. 0.54% of 330,000 active. growth inhibition, % (concentration not given with the values). S. aureus RN4220 ugtP deletion, OD600 growth, 16 h; some inactives read as strong as hits;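 active = z-score under -3 and OD600 up to 0.15 on both plates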;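 also: plate controls were untreated wells for no effect and antibiotic for full effect; wells of about 80 µL received 100 nL stock; the first replicate is given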
PrP 5UTR inh: inhibition of PrP 5' UTR reporter expression; 0.35% of 340,000 active; cell-based PrP 5' UTR mRNA reporter, plate reader; inhibition, % (test concentration not listed);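 active = every replicate at 50% or more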;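 also: 0 = median of the neutral control wells; tested in H4 reporter cells; numbers are from one replicate; inactives centre near -14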
Autofluor counter: compound fluorescence in toxin protease inhibitor counterscreen; 3.1% of 360,000 active; fluorescence intensity (no concentration beside the values); compound autofluorescence counterscreen, microsphere flow cytometry; active compounds read high; AID 624483;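 active = at least 3 SD above the mean of all compounds, about 16000 in these data; inconclusive = too few beads counted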;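 also: 100 nL of 1 mM stock went into each well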
Mtb hypoxia inh growth: further read-out of Mtb hypoxia inh, marked with its call; growth inhibition, %; measured here: M. tuberculosis growth (absorbance);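 0% = vehicle and 100% = reference antibiotic; read after six days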
The depositor's hits bear a star; ? = inconclusive; . = not tested or not shown; & = joins results of further samples.

SMILES	RN4220 kill	BJeLR viability	Mtb hypoxia inh	Mtb hypoxia inh growth	Sa ugtP lethal	PrP 5UTR inh	Autofluor counter
CC(=O)c1cn(CC(=O)Nc2ccc(C)c(C)c2)c2ccccc12	0.9	22	5	2	-3	-18	4402
COc1cc(OC)c(OC)cc1CNC(=O)c1ccc(S(=O)(=O)N2CCCCC2)cc1	1.2	.	3	-2	-1	-3	.
O=C(O)C=CC(=O)NCc1cn(-c2ccccc2)nc1-c1cccc(Br)c1	13	.	1	0	-3	.	.
CC(C)c1ccc(/C=C2\SC(=S)N(CCC(=O)N3CCCCC3CCO)C2=O)cc1 (centres undefined)	2.7	2	-6	-1	-7	43	6042
COc1cc(-c2noc(CCC(=O)Nc3cccnc3)n2)cc(OC)c1OC	2.8	1	.	.	1	-20	2534
COC(CNC(=O)c1cc(S(=O)(=O)N2CCc3ccccc32)ccc1F)OC	4.4	-11	5	1	18	-17	3984
O=C(C1CCCO1)N1CCN(C(=S)Nc2ccc(F)cc2)CC1 (centres undefined)	3.8	5	1	13	4	-20	2173
O=C(CC1SC(N2CCCCC2)=NC1=O)Nc1cccc(C(=O)O)c1 (centres undefined)	1.1	-6	6	4	0	-22	4531
CCC(=O)N1c2ccc(S(=O)(=O)CCC(=O)N3CCC4(CC3)OCCO4)cc2CC1C (centres undefined)	-0.4	-1	.	.	0	4	2846
O=C1/C(=C\c2ccncc2)CCc2ccccc21	.	2	.	.	.	-11	3735
CCOC(=O)C(C#N)C(Cc1ccccc1)c1ccco1 (centres undefined)	0.5	-10	7	7	0	-17	4739
O=C(CSC1=NCCS1)Nc1cccc2ccccc12	-17	-1	18	14	10	-15	3172
CCOc1cc(N2CCOCC2)c(OCC)cc1NC(=O)COC(=O)c1ccc([N+](=O)[O-])o1	8.7	.	.	.	-5	-23	3407
O=C(CSc1nnc(-c2ccccn2)n1-c1ccccc1)Nc1ccc2c(c1)OCO2	2.0	-8	3	8	-4	-8	2685
CCOc1ccc2nc(Cl)c(C3CC(c4ccco4)=NN3S(C)(=O)=O)cc2c1 (centres undefined)	1.3	8	-7	-6	7	-5	4355
CN(C)c1ccc(C(=O)N2CCCC2)cc1	-0.9	4	7	9	9	-103	3278
Cc1ccc(CNC(=O)c2nnn(CC(=O)Nc3cc(C)cc(C)c3)c2N)cc1	5.0	2	0	-6	-7	-8	5127
CCCOC(=O)c1ccc(NS(=O)(=O)c2cccs2)cc1	6.0	-6	0	1	-14	-8	3235
COc1ccc(/C=C/c2nnc(NC(=O)C(C)(C)C)s2)cc1	6.5	5	8	-2	-9	-27	4642
Cc1[nH]c2ccccc2c1/C=C(\C#N)C(=O)NC1CC1	0.5	-1	-3	2	-9	-18	4539
COc1ccc(C2SCC(=O)N2c2ccc(F)cc2)cc1 (centres undefined)	3.6	-6	5	5	3	-16	4207
COc1ccc(CC(=O)NCc2csc(-c3cccs3)n2)cc1OC	0.8	12	6	1	-1	11	4600
O=C(COc1ccc(S(=O)(=O)N2CCOCC2)cc1)N1CCCCCC1	3.8	0	6	2	5	-23	4767
CCOc1cccc2cc(C(=O)N3CCN(C/C=C/c4ccccc4)CC3)c(=O)oc12	5.4	-1	10	5	-4	-8	16172*
C=C(C(=O)O)C1CCC2(C)CCCC(C)(O)C2C1 (centres undefined)	8.0	6	.	.	-12	-24	5087
COCCCNC(=O)c1ccc(OC)c(OC2CCN(C(C)C)CC2)c1	7.1	3	-8	-4	12	-3	3562
CCN(C(=O)COC(=O)/C=C/c1ccccc1Cl)c1c(N)n(Cc2ccccc2)c(=O)[nH]c1=O	2.6	.	1	-1	3	4	?
COc1ccc(C2C=C(Nc3ccccc3)C(=O)N2c2ccccc2)cc1OC (centres undefined)	-4.5	-1	10	-3	1	-20	2431
C[N+](C)(C)CCOC(N)=O	4.4	.	2	-1	-4	-3	5714
S=P(Nn1cnnc1)(c1ccccc1)c1ccccc1	6.6	-13	4	-6	7	-17	2445
CCOC(=O)C(Cc1ccccc1)C(=O)NCc1cccnc1 (centres undefined)	0.5	-3	4	-2	0	3	3719
Clc1ncnc2scc(-c3ccccc3)c12	7.8	-8	11	6	11	-32	10284
O=C(Nc1ccc(S(=O)(=O)N2CCCC2)cc1)c1cnccn1	2.8	-6	3	7	4	-18	2472
O=C(COc1cccnc1[N+](=O)[O-])Nc1cccc(Br)c1	0.7	.	18	11	-3	-65	4164
CC(=NNC(=O)CCc1ccc(S(=O)(=O)N2CCOCC2)cc1)c1ccc(OC(F)F)cc1	6.1	.	12	9	6	.	.
Cc1nc(-c2ccccc2)sc1C1(C)CC(c2c(Cl)cccc2Cl)=NO1 (centres undefined)	14	-6	7	9	-24	-9	3929
[O-]/C(=C(\C(=S)Nc1cccc2ccccc12)[n+]1ccccc1)c1cccs1	-3.7	2	7	0	7	-5	4003
CNC(=S)N/N=C(\C)c1ccc(-n2ccnc2)cc1	.	-2	.	.	.	-13	9696
O=c1[nH]c(=S)n(-c2ccccc2)c(O)c1C=NCc1ccccn1	2.4	-2	7	10	4	.	4295
O=C(Cn1c(=O)oc2cc(S(=O)(=O)N3CCCC3)ccc21)NCc1ccc(F)cc1	-0.4	17	3	8	14	-16	6277
Cc1cccc(Cn2ccc(NC(=O)c3cccnc3)n2)c1	4.3	3	9	7	0	-28	3103
C/C(N)=C(/C#N)C(=O)CSc1nnc(Nc2c(C)cccc2C)s1	5.0&2.9	3	14&8	7&11	-6&-6	43&-16	3932&4208
Cc1cc(Br)c(NC(=O)c2c(-c3c(Cl)cccc3Cl)noc2C)c(Br)c1	.	-4	.	.	.	-6	3514
Cc1cc(N/N=C/c2ccccc2O)nc(-c2ccccc2O)n1	.	5	.	.	.	-21	2282
O=C(CCNC(=O)c1ccccc1)Nc1ccc(Cl)c(S(=O)(=O)N2CCCCC2)c1	-0.9	.	3	3	1	-17	3694
CC(C)C(=O)NC(=S)Nc1ccccc1N1CCN(C(=O)c2ccccc2)CC1	0.0	-5	8	-1	3	2	4211
O=C(NC1=NCCS1)c1ccc(Cl)c(S(=O)(=O)N2CCc3ccccc32)c1	1.8	-8	5	7	11	-22	4409
CN(C)c1ccc(NC(=O)C(=O)C2C(=O)Nc3ccccc32)cc1 (centres undefined)	4.3	-4	7	-4	-1	.	3664

Rewritten field by field: entries from further up.
C/C(N)=C(/C#N)C(=O)CSc1nnc(Nc2c(C)cccc2C)s1
  RN4220 kill = 5.0&2.9	BJeLR viability = 3	Mtb hypoxia inh = 14&8	Mtb hypoxia inh growth = 7&11	Sa ugtP lethal = -6&-6	PrP 5UTR inh = 43&-16	Autofluor counter = 3932&4208
Cc1cc(Br)c(NC(=O)c2c(-c3c(Cl)cccc3Cl)noc2C)c(Br)c1
  RN4220 kill = .	BJeLR viability = -4	Mtb hypoxia inh = .	Mtb hypoxia inh growth = .	Sa ugtP lethal = .	PrP 5UTR inh = -6	Autofluor counter = 3514

The results go on.
SMILES	RN4220 kill	BJeLR viability	Mtb hypoxia inh	Mtb hypoxia inh growth	Sa ugtP lethal	PrP 5UTR inh	Autofluor counter
NC(=O)CCc1nc2cc(C(F)(F)F)ccc2n(Cc2ccccc2)c1=O	1.3	-20	-4	7	2	-14	3689
CSc1ccc(Cl)c(C(=O)OCC(=O)N2CC(C)OC(C)C2)c1 (centres undefined)	-14	-3	.	.	-1	-31	2989
O=C(O)Cc1c(C(=O)O)[nH]c2ccc(C(=O)O)cc12	3.8	5	-17	-1	4	-10	4774
COCc1ccc(C(=O)NCC2(N3CCCCC3)CCCCC2)cc1	9.5	-8	-5	-1	13	-7	4062
COc1ccc(C(=O)Nc2ccccn2)cc1	-2.2	-4	.	.	-3	-32	2472
CCn1c(C)nc2cc(-c3nc4n(n3)Cc3ccccc3-4)ccc21	20	63*	2	-5	23	94*	3402
CS(=O)(=O)N(CCc1ccccc1)CC(=O)N1CCN(c2ccccc2)CC1	-2.8	18	4	4	-7	-4	3910
Cc1ccc(O)c(-c2cc(C(=O)NCc3ccncc3)[nH]n2)c1	3.7	0	-2	-1	-2	-13	6990
COCCCNc1nc2ccccc2nc1NS(=O)(=O)c1ccc(C)c(C)c1	4.3	-2	-2	-7	1	1	3499
CCOc1ccc(S(=O)(=O)NCc2cccnc2)cc1NC(=O)c1ccccc1F	-0.3	8	6	-3	8	0	4135
Cn1c(SCC=Cc2ccccc2)nnc1-c1cnccn1	4.7	.	8	4	0	.	.
COC(=O)C(Cc1ccccc1)NC(=O)CCNC(=O)c1ccco1 (centres undefined)	1.0	-4	10	8	10	-27	4002
CCOC(=O)C1C(=O)CC(C)(O)C(C(=O)OCC)C1c1ccc(C)s1 (centres undefined)	7.5	4	10	10	-5	-13	8367
FC(F)(F)c1cccc(Oc2ccc3c(C(F)(F)F)cc(C(F)(F)F)nc3n2)c1	0.3	1	6	7	2	-3	21842*
Cc1ccc(C2=NCC(=O)Nc3ccc(Br)cc32)cc1	5.6	-15	11	8	12	-4	3252
COc1cc(OC)c(C(=O)Nc2ccc(N(C)C)cc2)cc1OC	1.1	2	.	.	7	-54	2268
Cc1c(C(=O)Oc2cc(N)n(S(C)(=O)=O)n2)cccc1[N+](=O)[O-]	0.6	1	14	8	7	-21	1969
CC(C)Oc1c(N2CCOCC2)c(=O)c1=O	4.6	-1	10	12	2	-3	6370
O/N=C\c1ccccc1Oc1ccc(F)cc1	.	-4	.	.	.	-25	4268
Cc1c(NC(=O)Cc2cccs2)cccc1[N+](=O)[O-]	3.9	-7	8	2	-3	-11	2166
Cc1cc(OCC(=O)NCCN2CCOCC2)ccc1Br	-0.3	-7	.	.	11	-22	3133
O=S(=O)(Nc1nc2ccccc2nc1NCc1ccco1)c1ccccc1	25	-2	-2	5	-10	1	2443
Oc1ccc(C=NN(c2ccccc2)c2ccccc2)cc1O	13	.	7	1	1	.	.
CC1CCC(NC(=O)CSc2nncs2)CC1 (centres undefined)	4.1	-11	1	-5	10	11	4275

Some of the entries so far, with bars between the fields:
smiles | RN4220 kill | BJeLR viability | Mtb hypoxia inh | Mtb hypoxia inh growth | Sa ugtP lethal | PrP 5UTR inh | Autofluor counter
Cc1ccc(O)c(-c2cc(C(=O)NCc3ccncc3)[nH]n2)c1 | 3.7 | 0 | -2 | -1 | -2 | -13 | 6990
COCCCNc1nc2ccccc2nc1NS(=O)(=O)c1ccc(C)c(C)c1 | 4.3 | -2 | -2 | -7 | 1 | 1 | 3499
CCOc1ccc(S(=O)(=O)NCc2cccnc2)cc1NC(=O)c1ccccc1F | -0.3 | 8 | 6 | -3 | 8 | 0 | 4135
Cn1c(SCC=Cc2ccccc2)nnc1-c1cnccn1 | 4.7 | . | 8 | 4 | 0 | . | .
COC(=O)C(Cc1ccccc1)NC(=O)CCNC(=O)c1ccco1 (centres undefined) | 1.0 | -4 | 10 | 8 | 10 | -27 | 4002
CCOC(=O)C1C(=O)CC(C)(O)C(C(=O)OCC)C1c1ccc(C)s1 (centres undefined) | 7.5 | 4 | 10 | 10 | -5 | -13 | 8367
FC(F)(F)c1cccc(Oc2ccc3c(C(F)(F)F)cc(C(F)(F)F)nc3n2)c1 | 0.3 | 1 | 6 | 7 | 2 | -3 | 21842*
Cc1ccc(C2=NCC(=O)Nc3ccc(Br)cc32)cc1 | 5.6 | -15 | 11 | 8 | 12 | -4 | 3252
COc1cc(OC)c(C(=O)Nc2ccc(N(C)C)cc2)cc1OC | 1.1 | 2 | . | . | 7 | -54 | 2268
Cc1c(C(=O)Oc2cc(N)n(S(C)(=O)=O)n2)cccc1[N+](=O)[O-] | 0.6 | 1 | 14 | 8 | 7 | -21 | 1969
CC(C)Oc1c(N2CCOCC2)c(=O)c1=O | 4.6 | -1 | 10 | 12 | 2 | -3 | 6370
O/N=C\c1ccccc1Oc1ccc(F)cc1 | . | -4 | . | . | . | -25 | 4268
Cc1c(NC(=O)Cc2cccs2)cccc1[N+](=O)[O-] | 3.9 | -7 | 8 | 2 | -3 | -11 | 2166
Cc1cc(OCC(=O)NCCN2CCOCC2)ccc1Br | -0.3 | -7 | . | . | 11 | -22 | 3133
O=S(=O)(Nc1nc2ccccc2nc1NCc1ccco1)c1ccccc1 | 25 | -2 | -2 | 5 | -10 | 1 | 2443

(listing goes on)
SMILES	RN4220 kill	BJeLR viability	Mtb hypoxia inh	Mtb hypoxia inh growth	Sa ugtP lethal	PrP 5UTR inh	Autofluor counter
O=C(NCCCN1CCOCC1)c1c(F)cccc1F	2.3	2	6	10	-2	-8	21499*
CCOC(=O)c1c(NC(=O)c2ccc(Br)o2)sc(C)c1CC	-13	16	12	7	-12	-4	2587
CC1CN(CC(=O)NC(C)c2ccccc2)CC(C)O1 (centres undefined)	2.6	12	11	3	13	4	2877
COc1cc(C=NNC2=NCCCCC2)ccc1O	-1.9	.	-8	10	-12	.	.

Compounds were not picked by outcome; 4% or so of the library scored in one or more.
